# Vaccinia inh = Vaccinia orthopox stage-specific inhibition | Vaccinia-infected cells, mCherry/Venus stage reporter fluorescence; stronger effect = lower value; some inactives read as strong as hits | AID 1053133 | activity change (mCherry), % (concentration not given with the values) | hit rate 0.01% among 89,000;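 active means mCherry past -33% and 40 or more points under the early reporter, replicates agreeing; inconclusive means past -33% without that gap or agreement; tested in A549 cells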;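 further: scaled between vehicle wells and reference inhibitor wells; 23 nL library stock went into each well; one replicate is shown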
# Vaccinia inh Venus = also measured in Vaccinia inh; calls as there; activity change (Venus), %; measured here: Venus reporter, other viral stage;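 negative = less Venus signal; first of two replicates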
# * marks the source's active call; other numbers are inactive results; u = inconclusive; x = not tested or not shown; & = joins results of further samples. An excerpt; the hit share may differ from the screen's.
# Sample of the layout:
item	mol	Vaccinia inh	Vaccinia inh Venus
1	CN(C)C(=O)c1cccc(-c2ccc(C3[C@H]4CNC[C@@H]3N4Cc3nccs3)cc2)c1 (stereo partly drawn)	7&0	7&5
2	CCCN(C)C[C@@H]1OCc2cn(nn2)CCCC(=O)N([C@H](C)CO)C[C@@H]1C	3	-4
3	COCC(=O)N1[C@@H]2c3ccc(-c4cccnc4)c(=O)n3C[C@@H]2[C@@H](CO)[C@@H]1C(=O)Nc1ccccc1	11	11

# Results, from the start:
item	mol	Vaccinia inh	Vaccinia inh Venus
1	CN(C)C(=O)c1cccc(-c2ccc(C3[C@H]4CNC[C@@H]3N4Cc3nccs3)cc2)c1 (stereo partly drawn)	7&0	7&5
2	CCCN(C)C[C@@H]1OCc2cn(nn2)CCCC(=O)N([C@H](C)CO)C[C@@H]1C	3	-4
3	COCC(=O)N1[C@@H]2c3ccc(-c4cccnc4)c(=O)n3C[C@@H]2[C@@H](CO)[C@@H]1C(=O)Nc1ccccc1	11	11
4	Cc1ccccc1S(=O)(=O)N1CC(=O)N2[C@@H](CO)[C@@H](c3ccc(C#CC4CC4)cc3)[C@@H]2C1	-2	-15
5	COc1ccc2c3c(n(C)c2c1)[C@@H](CO)N(C(=O)C1CC1)CC31CCN(C)CC1	3	7
6	O=C(C[C@H]1CC[C@H]2NC[C@H](O)COC[C@@H]2O1)Nc1nccs1	4	6
7	C[C@H](NC(=O)C[C@@H]1C[C@@H]2c3cc(NC(=O)C4CCOCC4)ccc3O[C@@H]2[C@H](CO)O1)c1ccccc1	14	16
8	CCC(=O)N(C)C[C@@H]1[C@H](c2ccc(C3=CCCC3)cc2)[C@H](CO)N1C(=O)CC	10	5
9	COCC(=O)Nc1ccc2c(c1)[C@@H]1C[C@H](CC(=O)NCc3ccccc3)O[C@H](CO)[C@@H]1O2	6	-4
10	CNC(=O)C[C@@H]1CC[C@H]2[C@H](COc3ccc(NC(=O)c4ccc(OC)cc4)cc3C(=O)N2C)O1	7	4
11	CS(=O)(=O)N[C@@H]1C[C@@H]2O[C@H](CO)CC[C@@H]2O[C@@H]1CCc1ccc(/C=C/c2ccccc2)cc1	16	4
12	COc1ccc(NC(=O)N(C)C[C@@H]2Oc3ncc(C#CC(C)C)cc3C(=O)N([C@H](C)CO)C[C@@H]2C)cc1	3	10
13	C[C@@H]1CN([C@@H](C)CO)C(=O)c2cccc(NS(=O)(=O)c3cn(C)cn3)c2O[C@H]1CN(C)S(=O)(=O)c1cn(C)cn1	17	22
14	CC=Cc1ccc2n(c1=O)C[C@@H]1[C@@H](CO)[C@H](C(=O)N(C)C)N(CC3CCCC3)[C@H]21 (mixture of isomers)	3	1
15	COc1ccc(-c2ccc3n(c2=O)C[C@@H]2[C@@H](CO)[C@H](C(=O)NC4Cc5ccccc5C4)N[C@H]32)cc1	-2	0
16	C/C=C/c1ccc([C@H]2[C@H](CO)N[C@H]2CN(CC(C)C)C(=O)c2ccccn2)cc1	u	x
17	CC(C)CC#Cc1ccc2c(c1)O[C@H](CN(C)S(=O)(=O)c1ccc(F)cc1)[C@@H](C)CN([C@@H](C)CO)S2(=O)=O	u	x
18	COc1ccc(NC(=O)N(C)C[C@@H]2OCc3ccccc3-c3ccccc3C(=O)N([C@@H](C)CO)C[C@@H]2C)c(OC)c1	25	3
19	COc1ccc([Si](C)(C)[C@H]2[C@H](CCO)O[C@@]3(C(=O)N(Cc4ccccc4)c4ccc(NC(C)=O)cc43)[C@@H]2C)cc1	u	x
20	C/C=C/c1ccc2c(c1)O[C@@H](CN(C)C(=O)Cc1ccncc1)[C@H](C)CN([C@@H](C)CO)S2(=O)=O	-21	-13
21	CO[C@H]1CN(C)C(=O)c2ccc(NC(=O)c3ccccc3F)cc2OC[C@@H](C)N(CC2CCOCC2)C[C@H]1C	11	14
22	C[C@H]1CCCCO[C@@H](CN(C)C(=O)NC2CCCCC2)[C@@H](C)CN([C@@H](C)CO)C(=O)c2cc(NC(=O)Nc3ccccc3)ccc2O1	-6	2
23	C[C@H](CO)N1C[C@H](C)[C@@H](CN(C)C)Oc2c(NC(=O)c3cnccn3)cccc2C1=O	11	3
24	Cc1noc(C)c1NC(=O)Nc1ccc2c(c1)CC(=O)N([C@@H](C)CO)C[C@H](C)[C@H](CN(C)Cc1ccc(-c3ccccc3)cc1)O2	-31	-18
25	C/C=C/c1ccc([C@H]2[C@@H](CO)N3CCCCN(CCC(F)(F)F)C[C@@H]23)cc1	-26	-21
26	COc1ccc(CN(C)C[C@@H]2Oc3ccc(NS(=O)(=O)c4cccs4)cc3CC(=O)N([C@H](C)CO)C[C@@H]2C)cc1	6	1
27	CN(C)C(=O)C[C@@H]1C[C@@H]2c3cc(NC(=O)c4cccnc4)ccc3O[C@@H]2[C@H](CO)O1	6	11
28	COCC(=O)N(C)C[C@H]1Oc2ncc(C#Cc3ccc(F)cc3)cc2C(=O)N([C@@H](C)CO)C[C@@H]1C	21	1
29	CCC(=O)N1[C@@H]2c3cccc(=O)n3C[C@H]1[C@H](CO)[C@H]2C(=O)NC1Cc2ccccc2C1	23	16
30	C[C@H](NC(=O)C[C@H]1C[C@@H]2c3cc(NC(=O)CC4CC4)ccc3O[C@@H]2[C@@H](CO)O1)c1ccccc1	1	5
31	C[C@@H]1CN([C@@H](C)CO)C(=O)c2cc(NC(=O)Nc3ccccc3)ccc2O[C@H]1CN(C)C	13	3
32	C[C@@H]1CN([C@@H](C)CO)C(=O)CCCn2cc(nn2)CO[C@@H]1CN(C)S(=O)(=O)c1ccc2c(c1)OCCCO2	15	14
33	COc1ccc2c3c(n(C)c2c1)[C@@H](CO)N(C(=O)NC(C)C)CC31CCN(CC2CC2)CC1	-10	-7
34	C[C@@H]1CN([C@H](C)CO)C(=O)Cc2cc(NC(=O)C3CC3)ccc2O[C@H]1CN(C)Cc1ccc(C(=O)O)cc1	13	14
35	C[C@@H]1CN([C@@H](C)CO)S(=O)(=O)c2ccc(C#CC3(O)CCCC3)cc2O[C@@H]1CN(C)C(=O)Nc1ccccc1	-5	-6
36	C[C@H](CO)N1C[C@H](C)[C@@H](CN(C)C(=O)Nc2ccccc2)OCCCC[C@H](C)Oc2ccc(N(C)C)cc2C1=O	-2	-1
37	C[C@H](CO)N1C[C@H](C)[C@@H](CN(C)C(=O)CC2CC2)Oc2cc(-c3cccnc3)ccc2S1(=O)=O	29	16
38	Cc1noc(C)c1NC(=O)Nc1ccc2c(c1)C(=O)N([C@H](C)CO)C[C@@H](C)[C@@H](CN(C)Cc1ccc(-c3ccccc3)cc1)O2	-10	-7
39	C/C=C/c1ccc(C2[C@@H]3CN(C(=O)Cc4ccncc4)C[C@H]2N3)cc1 (stereo partly drawn)	5&-3	-2&-1
40	C[C@@H](O)C#Cc1cnc2c(c1)C(=O)N([C@@H](C)CO)C[C@H](C)[C@H](CN(C)C(=O)CN(C)C)O2	15	4
41	N#C[C@@H]1[C@@H](c2ccc(-c3ccncc3)cc2)[C@@H](CO)N1C(=O)C1CCOCC1	8	11
42	COc1cccc(S(=O)(=O)N2C[C@H](O)COC[C@H]3O[C@H](CC(=O)N4CCN(C)CC4)CC[C@@H]32)c1	11	5
43	C[C@@H]1CN([C@H](C)CO)C(=O)c2cc(-c3ccccc3F)cnc2O[C@H]1CN(C)C(=O)CN(C)C	31	9
44	CN1c2ccc(Br)cc2[C@@H]2[C@@H](CCN2S(=O)(=O)c2ccc(F)cc2)[C@H]1CO	23	0
45	O=C(C[C@@H]1CC[C@H]2[C@@H](COC[C@@H](O)CN2C(=O)Cc2ccccc2)O1)NC1CCCC1	0	0
46	CC(C)NC(=O)Nc1cccc2c1O[C@@H](CN(C)C(=O)Nc1cccc3ccccc13)[C@@H](C)CN([C@H](C)CO)C2=O	-5	-6
47	C[C@@H]1CN([C@@H](C)CO)C(=O)c2c(c3ccccc3n2C)-c2ccccc2CO[C@@H]1CN(C)C(=O)Nc1ccccc1C(F)(F)F	u	x
48	CO[C@H]1CN(C)C(=O)c2cc(NS(=O)(=O)c3ccc(C)cc3)ccc2OC[C@H](C)NC[C@H]1C	12	18
49	COc1ccc(C#Cc2ccc([C@H]3[C@@H](CO)N4C(=O)CN(C(=O)c5ccncc5)C[C@@H]34)cc2)cc1	12	-4
50	COc1ccc(NC(=O)N(C)C[C@H]2Oc3ccc(NS(=O)(=O)c4ccc(OC)cc4)cc3CC(=O)N([C@@H](C)CO)C[C@@H]2C)cc1	11	11

# Further structures follow:
item	mol	Vaccinia inh	Vaccinia inh Venus
51	O=C(c1ccccn1)N1CC2(C1)[C@H](c1ccccc1)[C@@H](CO)N2C(=O)C1CCCCC1	13	11
52	COc1cccc(CNC(=O)C[C@@H]2C=C[C@H](NS(=O)(=O)c3ccccc3OC)[C@@H](CO)O2)c1	3	3
53	C[C@H](CO)N1C[C@H](C)[C@@H](CN(C)S(=O)(=O)c2cn(C)cn2)Oc2c(NC(=O)c3ccc(-c4nccs4)cc3)cccc2C1=O	-4	-7
54	CC(=O)N1[C@@H](CO)[C@@H](c2ccccc2)C12CN(C(=O)c1ccccc1)C2	7	4
55	C[C@H](CO)N1C[C@H](C)[C@@H](CN(C)C(=O)N[C@H](C)c2ccccc2)OCc2ccccc2-c2c(n(C)c3ccccc23)C1=O	u	x
56	C[C@@H]1CN([C@H](C)CO)C(=O)c2cc(NC(=O)CCCCCC(=O)Nc3ccccc3N)ccc2O[C@@H]1CN(C)Cc1ccc(Cl)c(Cl)c1	u	x
57	C[C@H](CO)N1C[C@H](C)[C@@H](CN(C)C(=O)Nc2ccc3c(c2)OCO3)OCCCC[C@H](C)Oc2ccc(NC(=O)C3CCCCC3)cc2C1=O	-12	-1
58	O=C(C[C@@H]1CC[C@H]2[C@@H](COC[C@H](O)CN2Cc2cccc(F)c2)O1)NCCc1ccncc1	4	-1
59	C[C@@H]1CN([C@H](C)CO)C(=O)c2cccc(NC(=O)C3CCCCC3)c2O[C@H]1CN(C)C(=O)Nc1ccc(F)cc1	4	7
60	C[C@@H]1CN([C@H](C)CO)C(=O)Cc2cc(NC(=O)Nc3cccc4ccccc34)ccc2O[C@@H]1CN(C)Cc1ccc(-c2ccccc2)cc1	9	5

# Record cards, from the list above. Screens in order: Vaccinia inh, Vaccinia inh Venus
# C[C@@H]1CN([C@H](C)CO)C(=O)c2cc(NC(=O)CCCCCC(=O)Nc3ccccc3N)ccc2O[C@@H]1CN(C)Cc1ccc(Cl)c(Cl)c1 in the list: u, x
# C[C@H](CO)N1C[C@H](C)[C@@H](CN(C)S(=O)(=O)c2cn(C)cn2)Oc2c(NC(=O)c3ccc(-c4nccs4)cc3)cccc2C1=O in the list: -4, -7
# C[C@@H]1CN([C@H](C)CO)C(=O)Cc2cc(NC(=O)Nc3cccc4ccccc34)ccc2O[C@@H]1CN(C)Cc1ccc(-c2ccccc2)cc1 in the list: 9, 5
# CC(=O)N1[C@@H](CO)[C@@H](c2ccccc2)C12CN(C(=O)c1ccccc1)C2 in the list: 7, 4
# O=C(C[C@@H]1CC[C@H]2[C@@H](COC[C@H](O)CN2Cc2cccc(F)c2)O1)NCCc1ccncc1 in the list: 4, -1

# Carrying on.
item	mol	Vaccinia inh	Vaccinia inh Venus
61	CC(=O)N(C)C[C@H]1Oc2ncc(C#Cc3ccncc3)cc2C(=O)N([C@@H](C)CO)C[C@@H]1C	14	12
62	CN1C(=O)c2cc(NC(=O)C3CCOCC3)ccc2OC[C@@H]2O[C@H](CC(=O)O)CC[C@H]21	-2	5
63	CC(=O)N[C@H]1CC[C@H](CCNC(=O)C2CCCCC2)O[C@H]1CO	6	5
64	C[C@@H]1CN([C@H](C)CO)C(=O)c2cc(NC(=O)NC3CCCCC3)ccc2O[C@@H]1CN(C)S(=O)(=O)c1ccc(Cl)cc1	-26	-20
65	COc1ccccc1NC(=O)N[C@H]1C=C[C@H](CC(=O)N[C@@H](C)c2ccccc2)O[C@H]1CO	9	-1
66	C[C@@H]1CN([C@@H](C)CO)C(=O)c2cccc(NC(=O)C3CCCCC3)c2O[C@H]1CN(C)Cc1ccc(C(=O)Nc2ccccc2N)cc1	-8	-3
67	C[C@@H]1CN([C@@H](C)CO)C(=O)Cc2cc(NS(=O)(=O)c3cn(C)cn3)ccc2O[C@H]1CN(C)Cc1ccc(-c2ccccc2)cc1	-21	-20
68	CO[C@H]1CN(C)C(=O)c2ccc(NC(=O)C3CC3)cc2OC[C@@H](C)N(CCC(F)(F)F)C[C@@H]1C	-8	-9
69	CCCC(=O)Nc1ccc2c(c1)C(=O)N(C)C[C@H](OC)[C@H](C)CN(C(=O)c1ccncc1)[C@H](C)CO2	19	4
70	CC(C)c1cn(CC[C@@H]2CC[C@H](NS(=O)(=O)Cc3ccccc3)[C@H](CO)O2)nn1	-7	2
71	O=C(C[C@H]1CC[C@@H](NS(=O)(=O)c2ccccc2)[C@@H](CO)O1)NCc1ccccc1F	3	7
72	CC(C)CC#Cc1ccc2c(c1)O[C@@H](CN(C)Cc1ccccc1F)[C@H](C)CN([C@H](C)CO)S2(=O)=O	-32	-35
73	C[C@@H]1CCCCO[C@@H](CN(C)C(=O)C2CCCCC2)[C@H](C)CN([C@H](C)CO)C(=O)c2cc(NC(=O)CCC(F)(F)F)ccc2O1	-10	-6
74	C[C@H](CO)N1C[C@H](C)[C@H](CN(C)S(=O)(=O)c2ccc(F)cc2)Oc2ccc(N(C)C)cc2CC1=O	9	4
75	C[C@H]1CN([C@@H](C)CO)C(=O)c2cc(NS(=O)(=O)c3ccccc3)ccc2O[C@H]1CN(C)CC1CC1	14	11
76	C[C@H]1CN([C@@H](C)CO)C(=O)c2ccccc2-c2ccccc2CO[C@@H]1CN(C)S(=O)(=O)c1ccc(C(F)(F)F)cc1	u	x
77	CNC[C@H]1Oc2ccc(NC(=O)Nc3cccc4ccccc34)cc2C(=O)N([C@H](C)CO)C[C@@H]1C	8	8
78	CN1c2ccc(-c3ccccc3)cc2[C@@H]2[C@@H](CCN2C(=O)Cc2ccccc2)[C@H]1CO	1	3
79	C[C@@H]1CN([C@H](C)CO)C(=O)c2cc(NC(=O)Cc3ccccc3)ccc2O[C@@H]1CN(C)S(C)(=O)=O	5	2
